# GIRK2 act – activators of human GIRK2 potassium channels. calls only for hits at 25 µM. P48051. 63,000 tested, 0.05% active. HEK293-GIRK2 thallium flux, Thallos fluorescence;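 active = among the strongest 0.2% of first-round signals and kept after retests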;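 also: first round at about 10 µM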
# Target sequence (P48051 whole entry, looked up): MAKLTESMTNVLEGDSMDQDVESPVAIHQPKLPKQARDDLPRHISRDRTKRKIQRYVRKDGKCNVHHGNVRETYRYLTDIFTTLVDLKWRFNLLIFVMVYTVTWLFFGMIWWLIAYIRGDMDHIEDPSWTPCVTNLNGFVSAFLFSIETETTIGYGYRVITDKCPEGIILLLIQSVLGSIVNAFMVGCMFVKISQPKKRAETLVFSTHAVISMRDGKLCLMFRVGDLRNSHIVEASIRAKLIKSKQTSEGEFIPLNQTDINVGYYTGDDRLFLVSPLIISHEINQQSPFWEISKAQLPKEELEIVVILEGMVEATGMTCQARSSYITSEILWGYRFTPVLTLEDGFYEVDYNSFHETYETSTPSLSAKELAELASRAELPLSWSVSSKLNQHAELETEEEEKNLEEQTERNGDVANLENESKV
# Calls only; i = inactive.
smiles,GIRK2 act
O=C(c1ccccc1C(F)(F)F)N1CCCC(c2nnc(-c3ccccc3F)s2)C1 (centres undefined),i
Cc1cc(C)nc(NC(=O)c2c[nH]c3c(C(F)(F)F)cccc3c2=O)n1,i
Cc1cc(C(=O)N2CCC(CSC3=NCCS3)CC2)c(C)o1,i
Cc1ccc(C(=O)N(CC2CCCO2)c2nc3ccc(F)cc3s2)cc1C (centres undefined),i
CONC(=O)c1nnn(-c2ccc(F)cc2)n1,i
COc1cc(C(=O)Nc2ccc3c(c2)CCC(=O)N3)cc(OC)c1OC,i
CCn1c(=O)c(C(=O)Nc2cccc(C)c2C)c(O)c2ccccc21,i
COC(=O)c1sccc1NC(=O)Cn1ccn2nc(-c3ccc(OC)c(OC)c3)cc2c1=O,i
CC(C)(C)NC(=O)[C@@H]1CN(Cc2cccnc2)CCN1C[C@@H](O)C[C@@H](Cc1ccccc1)C(=O)N[C@H]1c2ccccc2C[C@H]1O,i
COc1cc(C(=O)NCCC(O)C(C)(C)C)cc(OC)c1OC (centres undefined),i
COc1ccc2[nH]cc(CCNC(=O)C3CCN(c4ncnc5c4sc4ncccc45)CC3)c2c1,i
CC(=O)Cn1c(=O)c2c(nc3n(CC(C)=O)c(C)cn23)n(C)c1=O,i
O=C1/C(=C/c2ccccc2)Oc2c1ccc1c2CN(CCN2CCOCC2)CO1,i
CCCNC(=O)Cn1nc2cc(C)nc(Nc3cc(C)cc(C)c3)n2c1=O,i
CNC(=O)CSc1nnc(N2CCN(C(=O)c3cccc(C(F)(F)F)c3)CC2)s1,i
COc1cccc(C(=O)N2CCN(c3nnc(SCC(=O)NC(C)C)s3)CC2)c1,i
O=C(CC(c1ccccc1)c1ccccc1)N1CCN(CCn2cccn2)CC1,i
CCOc1ccccc1C(=O)N1CCN(Cc2c(C)noc2C)CC1,i
CC(=O)Nc1ccc(S(=O)(=O)NCC2(c3ccccc3)CCOCC2)cc1,i
Cc1ccc(C)c(N2CCN(C(=O)Cn3cccn3)CC2)c1,i
COc1ccc(CNC(=O)c2[nH]c3ccc(C)cc3c2NC(=O)c2ccc(F)cc2)cc1OC,i
COc1ccc(-c2c(-c3ccc(OC)cc3O)nc(C)nc2C(F)(F)F)cc1,i
CCCc1ccc(C(=O)NCC2CCN(c3ccccn3)CC2)cc1,i
COc1cc2c(cc1Nc1nc(N3CCc4ccccc43)c3cc[nH]c3n1)N(C(=O)CN(C)C)CC2,i
Oc1cc2c(cc1O)CN(C(=S)NCCc1ccc(Cl)cc1)CCC2,i
O=c1c(=O)n(-c2ccccc2)ccn1Cc1nc(-c2cccc(Br)c2)no1,i
COc1ccc(OC)c(-c2cc(C(=O)Nc3ccc4c(c3)CCC(=O)N4C)n(C)n2)c1,i
CN1CCN(S(=O)(=O)c2ccc(C3CCCCC3)cc2)CC1,i
Cc1ccc2nc(C3CN(C(=O)C4(c5ccc(Cl)cc5)CCCC4)C3)[nH]c2c1,i
CC(C)(C)OC(=O)N1CCN(C(=O)c2cnn3c2OCCC3)CC1,i
COc1ccc(CNC(=O)C2CCN(c3ccc(S(=O)(=O)c4ccc(C)cc4)nn3)CC2)cc1,i
O=C(NCc1ccccn1)c1ccc(S(=O)(=O)N2CCCC2)o1,i
COC(=O)c1sc2ccccc2c1S(=O)(=O)Nc1cc(Cl)c(OC)cc1OC,i
CCOC(=O)N1CCc2c(sc(NC(=O)c3ccc(F)cc3)c2-c2nc3ccccc3s2)C1,i
COc1ccc(Cl)cc1NC(=O)c1c(O)c2sccc2n(C)c1=O,i
COc1ccc(Cl)cc1C(=O)Nc1nnc(-c2ccsc2)o1,i
Cc1cc(NC(=O)c2cc(=O)c3ccccc3o2)sn1,i
O=C(c1ccccc1)N1CCCc2ccc(NS(=O)(=O)c3ccc(Cl)s3)cc21,i
COC1=CC(=O)C2(O)C(=O)c3c(O)cc(C)cc3OC2(C)C1O (centres undefined),i
CN(C)CC#CCNC(=O)c1ccc(OC(F)(F)F)cc1,i
Cc1cc(C(O)CCNC(=O)c2cnoc2C)c(C)o1 (centres undefined),i
CC(C)Oc1ccc(C(=O)N(Cc2cccs2)Cc2cccn2C)cc1,i
COc1ccc(-c2nn3c(NCCCN(C)C)cc(C)nc3c2C)cc1OC,i
COc1cccc(CCNC(=O)c2ccc(=O)n(C)n2)c1,i
O=C(CSc1nnc2ccc(C(=O)Nc3cccc(F)c3)cn12)NCc1ccc(Cl)cc1,i
COc1cc(CSc2nnc(NC(=O)c3cn(C)nc3OC)s2)cc(OC)c1,i
COc1ccc(NC(=O)C2(c3cccs3)CCCC2)cc1,i
CC(C)C(=O)Nc1ccc(S(=O)(=O)NCCC(O)C2CC2)cc1 (centres undefined),i
CC(=O)NC1=NN(C(C)=O)C2(S1)C(=O)N(CCOc1ccc(C)cc1)c1c(C)cccc12 (centres undefined),i
COc1ncccc1C(=O)Nc1ccc(-c2ccn[nH]2)cc1,i

# The list continues.
smiles,GIRK2 act
Cc1cc(C)nc(Nc2nc(C(=O)Nc3ccc(C(F)(F)F)cc3)cs2)n1,i
Cc1cc(C)cc(N2CC(c3nc(-c4cccnc4)no3)CC2=O)c1 (centres undefined),i
O=C(Cn1nc(-c2ccco2)ccc1=O)NCCOc1cc(N2CCCCC2)ncn1,i
N#C/C(=C\c1cccc(O)c1)c1nc2ccccc2s1,i
CN(C)C1C(=O)C(C(N)=O)=C(O)C2(O)C(=O)C3=C(O)c4c(O)ccc(Cl)c4C(O)C3CC12 (centres undefined),i
COCC(=O)Nc1ccc2nc(C)n(-c3ccc(F)cc3)c(=O)c2c1,i
COc1ccc(-c2nnc(C3CCCN(C(=O)c4cccs4)C3)s2)cc1 (centres undefined),i
Cc1cccc(CC(=O)NCCCn2ccnc2-c2ccccc2)c1,i
COc1ccc(-c2cnc(SCC#N)n2-c2ccccc2)cc1,i
CC(O)(CNC(=O)C1CC=CCC1)c1ccccc1 (centres undefined),i
CC(O)(CNC(=O)/C=C/c1ccco1)c1ccco1 (centres undefined),i
COc1ccc(N(Cc2nc(-c3ccccc3)oc2C)S(=O)(=O)c2ccccc2)cc1,i
Cc1nc(-c2cccc(NC(=O)Cc3csc(Nc4ncccn4)n3)c2)cs1,i
COc1ccc(Cl)cc1NC(=O)Cn1c(=O)nc(-c2ccccc2)c2ccccc21,i
CSc1ccccc1NC(=O)C1CCCN(c2ccc(-c3ccco3)nn2)C1 (centres undefined),i
C=CCSc1nnc(-c2ccccc2NC(=O)c2ccc(S(=O)(=O)N3CCOCC3)cc2)o1,i
COc1ccc(-c2csc(-n3nc(C)cc3NC(=O)c3cccc([N+](=O)[O-])c3C)n2)cc1OC,i
O=C(CSc1ncccn1)N1CCC(S(=O)(=O)Cc2ccco2)CC1,i
CC(=O)c1cccc(NC(=O)Cn2nc(C(=O)N3CCOCC3)cc2-c2cccs2)c1,i
COc1ccc(NC(=O)Nc2cnc(N3CCCC3)nc2)cc1Cl,i
Cn1c(=O)n(CC(=O)O)c(=O)c2c1nc1n2CCN1c1ccccc1,i
COCCNC(=O)Cc1ccc(NC(=O)c2cnc3ccccc3n2)cc1,i
Cc1ccccc1NC(=O)c1nnn(Cc2nc(-c3cccc(Cl)c3)oc2C)c1N,i
Cc1nnsc1C(=O)N1CCC(CNC(=O)C(=O)NCC2CCCO2)CC1 (centres undefined),i
CC(=O)N1CCCc2ccc(NC(=O)c3ccc4c(c3)OCO4)cc21,i
CCOc1ccc(-c2noc(-c3nnn(-c4ccc(F)cc4F)c3N)n2)cc1,i
CCc1noc(-c2ccc(=O)n(CC(=O)Nc3cccc(OC)c3)c2)n1,i
C[C@@H]1CC[C@]2(C(=O)O[C@@H]3O[C@H](CO[C@@H]4O[C@H](CO)[C@@H](O)[C@H](O)[C@H]4O)[C@@H](O)[C@H](O)[C@H]3O)CC[C@]3(C)C(=CCC4[C@@]5(C)CC[C@H](O)[C@](C)(C(=O)O)C5CC[C@]43C)[C@@H]2[C@]1(C)O (some centres undefined),i
O=S(=O)(c1cccs1)N1CCC(c2nc(-c3ccc(C(F)(F)F)cc3)no2)CC1,i
O=C(NCc1cccs1)Nc1nc2c(s1)Cc1ccccc1-2,i
CC(C)CCNC(=O)c1ccc(Nc2nn3c(=O)c4ccccc4nc3s2)cc1,i
NC(=O)C1CCN(c2nc(N3CCOCC3)nc(N3CCOCC3)n2)CC1,i
O=C(NCC1COCCO1)c1nnn(-c2ccccc2F)c1-c1ccccn1 (centres undefined),i
O=C(NC1CCCCCC1)c1cc2cc(Cl)cc(Cl)c2oc1=O,i
CCN(CC)S(=O)(=O)c1ccc(C)c([N+](=O)[O-])c1,i
COc1ccccc1-c1coc2c3c(ccc2c1=O)OCN(C1CC(C)(C)NC(C)(C)C1)C3,i
CCCCOc1ccc(S(=O)(=O)NCc2sc(C)nc2C)cc1,i
CC(C)c1nc(-c2ccc(N3CCN(C(=O)Cc4cn(C)c5ccccc45)CC3)nc2)no1,i
CCOC(=O)N1CCC(NC(=O)c2cc(=O)c(OCc3ccc(F)cc3)cn2C)CC1,i
COC(=O)C1(Cc2ccc(O)c(CC3OC3(C)C)c2)OC(=O)C(O)=C1c1ccc(O)cc1 (centres undefined),i
CCn1c(=O)c2c(nc3n2CC(C)=NN3CCc2ccccc2)n(C)c1=O,i
CCOc1ccc2cccc(NC(=O)c3ccccc3Cl)c2n1,i
O=C(c1nc2ccccc2s1)N1CCC2(CC1)OCCS2,i
Cn1c(-c2ccccn2)nn(CCNC(=O)c2ccc3ncsc3c2)c1=O,i
Cc1nc(C)c(-c2nnc(NC(=O)CCOc3ccccc3)o2)s1,i
O=C(CCSc1ccccc1)N1CCN(c2ccc(-c3noc(C4CC4)n3)cn2)CC1,i
O=C(CSC1CCCC1)N1CCC(Oc2cnccn2)CC1,i
Cc1cccc(C(=O)Nc2ccc(OC(C)C)cc2)c1,i
Cn1c(=O)n(CCN2CCOCC2)c(=O)c2c1nc1n2CCCN1Cc1ccco1,i
Cc1nnc(NC(=O)c2csc(Nc3ccc(OC(F)F)cc3)n2)s1,i

# Next part.
smiles,GIRK2 act
O=c1ccc(-c2ccc(Cl)cc2)nn1CCc1nc(-c2ccc3c(c2)OCO3)no1,i
O=C(NCC(O)(c1ccccc1)C1CC1)NC(c1ccccc1)c1ccccc1 (centres undefined),i
O=C1CCc2cc(NC(=O)C3(c4ccccc4)CCOCC3)ccc2N1,i
COCCNC(=O)Nc1ccc2nc(SC)sc2c1,i
Cc1cc2nn(CC(=O)NCc3ccccc3)c(=O)n2c(Nc2ccc(C)c(F)c2)n1,i
COc1ccc(Cl)cc1C(=O)Nc1cc(C(=O)N2CCCC2)cn(C)c1=O,i
Cc1cc(C)n(-c2nc(CCNC(=O)c3ccc4ncsc4c3)cs2)n1,i
COc1ccc(CC(=O)NCC#CCN(C)Cc2ccccc2)cc1,i
CCCCC(C)(O)C/C=C/[C@H]1[C@H](O)CC(=O)[C@@H]1CCCCCCC(=O)OC (some centres undefined),i
COc1ccc(/C=C/C(=O)c2ccccc2O)cc1,i
CCOc1ccc(Nc2c(C(=O)N3CCOCC3)cnc3nc(C)ccc23)cc1,i
O=C(NCc1ccccc1)C1CCN(c2ccc(-n3cccn3)nn2)CC1,i
O=C1CCc2cc(S(=O)(=O)NCc3ccccc3)cc3c2N1CCC3,i
COc1ccc2c(c1)CCN(C(=O)c1cccnc1OC)C2,i
COc1cccc(CSc2nc(CC(=O)Nc3ccccc3SC)cc(=O)[nH]2)c1,i
COc1ccccc1-c1nnc(C2CCN(C(=O)c3ccco3)CC2)s1,i
CN(C)CC1COCCN1C(=O)C1(c2ccccc2)CCOCC1 (centres undefined),i
COc1ccc(-c2noc(-c3cccn(CC(=O)Nc4cc(C)ccc4C)c3=O)n2)cc1OC,i
COc1cc(/C=N\Nc2ncnc3c2cnn3Cc2ccccc2)ccc1O,i
Cc1ccc2c(NC(=O)CSC3CCCC3)cccc2n1,i
COc1cc2ccccc2cc1C(=O)Nc1sc2c(c1-c1nc3ccccc3s1)CCN(C)C2,i
Cc1cc(NC(=O)C2CCN(C(=O)Cc3c(C)noc3C)CC2)no1,i
O=S(=O)(Nc1ccc(N2CCCCC2)cc1)c1cccs1,i
CN(C)C(=O)c1nnn(-c2ccc(NC(=O)c3cc(Br)ccc3Cl)cc2)n1,i
Cc1cccc(NC(=O)N2CCN(c3cc(N4CCCCC4)ncn3)CC2)c1C,i

# Sorted by count of non-hydrogen atoms (low to high): part of the list above
smiles,GIRK2 act
Cc1nnc(NC(=O)c2csc(Nc3ccc(OC(F)F)cc3)n2)s1,i
CCn1c(=O)c2c(nc3n2CC(C)=NN3CCc2ccccc2)n(C)c1=O,i
COc1cccc(C(=O)N2CCN(c3nnc(SCC(=O)NC(C)C)s3)CC2)c1,i

# Next part
smiles,GIRK2 act
O=C(NCC1(c2cccs2)CCOCC1)C1CC1,i
Cc1ccccc1OCC(=O)NCCC(O)c1ccoc1 (centres undefined),i
COc1cc([C@H]2OC[C@](O)(Cc3ccc(O[C@@H]4O[C@H](CO)[C@@H](O)[C@H](O)[C@H]4O)c(OC)c3)[C@@H]2CO)ccc1O,i
CCOC(=O)N1CCN(C(=O)Nc2nc(CC(=O)NCc3cccs3)cs2)CC1,i

# A different layout for some results above:
Cc1nc(C)c(-c2nnc(NC(=O)CCOc3ccccc3)o2)s1
  GIRK2 act: i
O=C(CCSc1ccccc1)N1CCN(c2ccc(-c3noc(C4CC4)n3)cn2)CC1
  GIRK2 act: i
O=C(CSC1CCCC1)N1CCC(Oc2cnccn2)CC1
  GIRK2 act: i
Cc1cccc(C(=O)Nc2ccc(OC(C)C)cc2)c1
  GIRK2 act: i

# Assay outcomes deposited in PubChem BioAssay by Vanderbilt University.

# An excerpt. The share of hits here may be higher or lower than overall.
